FGF22 binding: binders of human FGF22 protein, primary screen, FGF22 synaptogenesis inhibitor project, biophysical, thermal shift, single point; Fibroblast growth factor 22 (Homo sapiens), Q9HCT0; recombinant FGF22 thermal shift, SYPRO orange fluorescence; percent of sucrose octasulfate shift, DMSO zero; calls only at 9.99 µM; actives 1.5% (n = 340,000); AID 651658, 2012;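 active means melting point raised past a set limit in the mean and every replicate; three in four hits are not shown here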
E coli growth: E. coli growth inhibition, primary screen, OD600 | OD600 absorbance (test concentration not listed) | actives 0.21% (n = 330,000) | Escherichia coli growth, 23 h; stronger effect = lower value;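 active means OD600 absorbance below the run mean of sample wells minus 3.6 SD, in any replicate, cut at about 0.56 in these data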;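 further: stock transfer was 300 nL into about 60 µL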
ALR H2O2 inh: inhibitors of human ALR sulfhydryl oxidase, primary screen, biochemical, H2O2 detection, HRP-luminol luminescence, single point. actives 3.8% (n = 290,000). purified ALR, DTT oxidation. FAD-linked sulfhydryl oxidase ALR (Homo sapiens), P55789. AID 485317, 2010. inhibition, % (test concentration not listed);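 active means mean and each replicate at 75% or more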;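 further: stock transfer was 7.5 nL into about 7.5 µL; 0% = neutral wells and 100% = wells with inactivated enzyme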
Target sequence (P55789 whole entry, looked up): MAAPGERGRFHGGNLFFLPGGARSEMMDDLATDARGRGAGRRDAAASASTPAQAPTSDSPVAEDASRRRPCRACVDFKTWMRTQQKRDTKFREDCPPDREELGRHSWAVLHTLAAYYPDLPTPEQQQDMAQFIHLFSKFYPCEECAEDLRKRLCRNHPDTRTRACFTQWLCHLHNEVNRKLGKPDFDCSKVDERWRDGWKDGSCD
UCH37 inh: inhibitors of human UCH37 deubiquitinase, primary screen, biochemical, Ub-AMC cleavage, fluorescence; Ubiquitin carboxyl-terminal hydrolase isozyme L5 (Homo sapiens), Q9Y5K5; inhibition, % (concentration not given with the values); purified proteasome/UCH37; actives 0.33% (n = 330,000);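 active means mean of two replicates above 20%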;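 further: 0% = compound-free wells with enzyme and 100% = wells lacking proteasome; stock transfer was 100 nL into about 20 µL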
Target sequence (Q9Y5K5 whole entry, looked up): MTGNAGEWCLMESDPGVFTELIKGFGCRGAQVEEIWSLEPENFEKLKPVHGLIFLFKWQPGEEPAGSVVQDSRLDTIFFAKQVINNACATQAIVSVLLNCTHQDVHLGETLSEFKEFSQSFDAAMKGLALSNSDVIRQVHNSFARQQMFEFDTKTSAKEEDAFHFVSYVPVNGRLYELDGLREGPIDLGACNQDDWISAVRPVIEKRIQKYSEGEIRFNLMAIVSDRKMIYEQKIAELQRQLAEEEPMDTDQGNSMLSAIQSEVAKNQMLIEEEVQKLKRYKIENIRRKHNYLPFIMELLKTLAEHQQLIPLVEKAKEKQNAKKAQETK
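Material: Human UCH37 enzyme supplied as purified proteasome complex | Schedule: 30 min compound-proteasome preincubation then 25 min substrate reaction, room temperature | Detection: AMC fluorescence from Ub-AMC cleavage, excitation 355 nm, emission 460 nm | Benchmarks: Wells without proteasome as full block, compound-free enzyme plus substrate as uninhibited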
Beta2AR agonist: beta2AR agonists driving receptor internalization, primary screen, cell-based, FAP fluorogen, flow cytometry | Am2.2-beta2AR cells; reference of the scale not given here | response, % (concentration not given with the values) | actives 0.43% (n = 340,000) | AID 504454, 2011;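 active means response above a set limit, near 3 SD of response in nonfluorescent compounds, cut at about 42% in these data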;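 further: stock transfer was 100 nL into about 11 µL; a reference agonist was the positive control; negative values mostly stem from fluorescent compounds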
Target sequence (P07550 whole entry, looked up): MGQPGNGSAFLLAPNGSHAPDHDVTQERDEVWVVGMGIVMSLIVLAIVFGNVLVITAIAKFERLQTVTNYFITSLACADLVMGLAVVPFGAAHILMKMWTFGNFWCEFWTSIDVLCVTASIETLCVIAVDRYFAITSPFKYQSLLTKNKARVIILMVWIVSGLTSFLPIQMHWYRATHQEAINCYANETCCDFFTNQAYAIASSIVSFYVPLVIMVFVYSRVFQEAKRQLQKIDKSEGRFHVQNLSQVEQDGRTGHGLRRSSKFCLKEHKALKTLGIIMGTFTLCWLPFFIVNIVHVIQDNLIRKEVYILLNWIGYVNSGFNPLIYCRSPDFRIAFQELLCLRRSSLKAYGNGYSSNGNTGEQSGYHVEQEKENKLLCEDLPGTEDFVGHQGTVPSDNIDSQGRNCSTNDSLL
HNF4A DNA FP: change in binding of human HNF4A to DNA, primary screen, biochemical, fluorescence polarization, FITC-DNA; 1 h; activity change, % at 10 µM; actives 0.3% (n = 360,000); Hepatocyte nuclear factor 4-alpha (Homo sapiens), P41235; in the data active means activity change above about 30%, passing the limit was not always enough;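 further: controls were the assay level and a saturating level of protein; the project sought stronger binding though the title names inhibitors; some compounds called inactive have numbers as strong as hits; positive values seem to mean higher polarization but the record does not say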
rRNA inh HTS: reduced GFP signal of wild-type E. coli, primary screen, bacterial rRNA inhibitor project, GFP/RFP fluorescence, OD600, single point. E. coli WT GFP vs humanized-ribosome RFP mutants, 24 h; stronger effect = lower value; DMSO median 0, no signal -100. GFP signal change (wild-type ribosome), % (concentration not given with the values). actives 1.6% (n = 350,000). AID 720706, 2013;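 active means significant combined selectivity score with lowered wild-type GFP, culture density cut under 30%, mutant RFP and density less affected; inactive means any of these conditions unmet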; further: one replicate is shown; some compounds called inactive have numbers as strong as hits
rRNA inh HTS OD600: further read-out of rRNA inh HTS, marked with its call; OD600 change, %; measured here: OD600 growth;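 optical density of the mix in the first replicate; 0 = DMSO median and -100 = no signal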
rRNA inh HTS RFP: recorded beside rRNA inh HTS, whose call it bears; RFP signal change, %; measured here: RFP humanized mutant strains;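 first replicate; 0 = DMSO median and -100 = no signal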
Starred values were filed as active, the others as inactive; i = inactive; · = not tested or not shown; & = joins results of further samples.

SMILES	FGF22 binding	E coli growth	ALR H2O2 inh	UCH37 inh	Beta2AR agonist	HNF4A DNA FP	rRNA inh HTS	rRNA inh HTS OD600	rRNA inh HTS RFP
CC(C)(C)NCCOCCOc1ccc(Cl)cc1C(C)(C)C	i	0.669	-19.8	3.1	2.6	-3.6	-12.4	-12.8	3.4
Cc1c(NC(=O)CN2c3cccc4cccc(c34)S2(=O)=O)c(=O)n(-c2ccccc2)n1C	·	0.717	-14.3	-41.3	-10.3	-0.6	·	·	·
COc1ccc(S(=O)(=O)N2CCN(CCc3ccccc3)CC2)cc1	i	0.697	-2.6	4.5	9.3	1.7	9.2	12.2	1.9
O=C(CC1CCCCC1)Nc1ncn[nH]1	·	0.67	-7.0	-0.2	4.5	-0.6	·	·	·
c1cncc(CSc2nnc3ccc(-c4cccs4)nn23)c1	i	0.716	-3.9	-4.5	-28.0	-6.2	9.1	-3.6	4.9
O=C(Oc1ccc(-c2nnco2)cc1)c1ccc(F)c(S(=O)(=O)N2CCOCC2)c1	·	·	-0.7	·	1.0	-0.3	8.8	2.4	0.4
Cc1cc(C(=O)N2CCN(S(C)(=O)=O)CC2)cs1	i	0.669	-1.8	-0.4	0.7	1.6	11.9	11.9	-5.8
CCCC[C@H](CC(=O)c1ccccc1)[C@@H](OC(C)=O)C(=O)Oc1c(C(C)C)cccc1C(C)C	i	·	-6.4	25.0*	-3.4	-0.5	1.6	0.4	-2.4
CCOC(=O)c1cc(NC(=O)N(C(C)C)C(C)C)c(C)nc1C	·	0.668	-44.6	-0.1	13.0	3.5	·	·	·
OC(CSc1nnnn1-c1ccccc1)Cn1c2ccccc2c2ccccc21 (configuration not stated)	i	·	·	·	·	-1.7	-4.4	-7.7	-5.2
Cc1ccc(NC(=O)COC(=O)CCc2c(C)nc3ncnn3c2C)cc1	i	0.684	-0.2	3.2	-4.9	-4.4	6.7	10.8	7.2
CC(=O)Nc1ccccc1C(=O)C(=O)Nc1ccccc1	·	0.703	15.2	2.3	2.4	2.1	·	·	·
CCN(CC)S(=O)(=O)c1ccc2c(c1)c(=O)c(C(=O)N1CCN(c3ccccn3)CC1)cn2C	i	0.679	-7.3	4.4	-4.4	0.9	1.6	12.6	9.6
COC(=O)c1sccc1NS(=O)(=O)c1ccccc1	i	0.688	-8.5	2.0	1.9	0.4	0.6	3.9	-0.5
O=C(CSc1nnc2n1CCCCC2)Nc1ccc(N2CCOCC2)cc1	i	0.684	85.8*	-2.0	-1.5	3.9	7.6	3.2	-5.7
C=CCOc1ccccc1CN1CCCC(CCC(=O)N(C)CCc2ccccn2)C1 (configuration not stated)	i	0.725	-24.8	-2.0	0.6	5.7	19.4	12.4	1.1
CN(C)CCNC(=O)C1Cc2c(-c3ccccc3Oc3ccccc3)ccnc2O1 (configuration not stated)	i	·	·	·	·	-0.9	-7.9	-13.3	2.9
COc1cccc(NC(=O)CSc2nnc(CN3CCOCC3)n2C)c1	·	0.747	-8.1	1.7	1.7	-0.7	·	·	·
COc1ccc(NS(=O)(=O)c2cn(C)nc2C)cc1	i	0.677	-4.9	-0.8	-10.7	-0.2	-0.2	1.6	-0.2
COc1ccc(C2C(C(C)=O)=C(O)C(=O)N2C)c(OC)c1 (configuration not stated)	·	0.763	-0.2	6.4	-2.6	-2.0	·	·	·
COc1ccc(C(C)(O)c2nc(-c3ccc(N(C)C)cc3)cs2)cc1 (configuration not stated)	i	·	·	·	·	2.5	-7.7	-13.2	-2.3
CCn1c(SCC(=O)N(C)c2c(N)n(Cc3ccccc3)c(=O)[nH]c2=O)nnc1-c1cccs1	i	·	·	·	·	2.2	3.2	8.2	0.4
CC(OC(=O)/C=C/c1ccccc1)C(=O)Nc1ccc2c(c1)OCCO2 (configuration not stated)	i	0.715	·	0.7	-8.1	1.6	1.9	5.6	-0.6
Cc1ccc(-n2ncc(C#N)c2/N=C/N(C)C)cc1	·	·	-2.1	·	-0.8	2.5	·	·	·
O=C(Cn1ccc2ccccc2c1=O)NCC(=O)N1CCN(c2ccc(F)cc2)CC1	·	0.649	-4.6	-1.4	-2.8	5.3	-1.1	2.3	2.7
Cc1cccc(OCc2nnc(NC(=O)Cc3cccs3)s2)c1	·	0.76	-4.2	0.6	0.4	0.5	·	·	·
Cc1ccc(S(=O)(=O)N(C)C)cc1-n1c(SCC(=O)Nc2ccc(F)c(F)c2F)nc2ccccc2c1=O	·	0.715	-21.7	-3.1	-5.3	-0.8	·	·	·
COC(=O)c1cc(Br)c(=O)n(-c2nccs2)c1	·	0.711	-4.5	3.6	7.7	-0.3	·	·	·
CCCCOc1c(Br)cc(/C=N/O)cc1OCC	·	·	6.9	·	3.6	7.1	·	·	·
CC(C)C1CC(c2ccccc2)(C(CN)CO)CCO1 (configuration not stated)	·	0.669	0.4	1.6	1.6	1.4	18.3	3.7	0.7
O=C(Cn1nc(-c2ccc(Cl)cc2)c2ccccc2c1=O)NCC1CCCO1 (configuration not stated)	·	0.67	-1.8	6.3	-12.0	4.0	·	·	·
Cc1ccc(C)c(NC(=O)CSc2nnc(-c3ccncc3)o2)c1	i	0.637	-6.0	3.5	-4.2	-2.6	·	·	·
CC(=O)C1CCC2C3CCC4=CC(=O)CCC4(C)C3(Br)C(=O)CC12C (configuration not stated)	i	0.707	·	2.0	55.6*	1.6	-11.6	7.3	7.9
COc1ccc(-c2cc(C(=O)OCC(=O)c3c(N)n(C)c(=O)n(C)c3=O)c3ccccc3n2)cc1	i	0.737	-3.5	-209.8	11.8	-1.1	12.8	9.0	-3.3
CCOc1ccc(OCC)c(NC(=O)CN2CCN(c3cccc(C)c3)CC2)c1	·	0.735	-5.1	2.7	0.5	-1.1	·	·	·
O=C(COc1ccccc1F)NNC(=O)c1ccc(F)c(S(=O)(=O)N2CCOCC2)c1	i	0.664	-1.9	-1.3	-1.5	0.2	-2.1	5.6	0.0
CC(=O)Nc1ccc(S(=O)(=O)O)c(OC(C)=O)c1	·	0.701	·	0.3	4.5	8.8	20.4	9.9	3.5
CC(=O)c1c(C)[nH]c(C(=O)NCc2ccco2)c1C	i	0.683	2.5	1.0	4.1	1.9	5.1	11.8	3.0
CCN(CC(=O)NCc1ccc(Cl)cc1)C(=O)/C=C/c1cccs1	·	0.657	·	5.0	5.6	-0.8	-1.2	-5.1	-3.0
COC(=O)c1cc(S(=O)(=O)Nc2cccc(C)c2C)cn1C	i	0.706	-1.4	3.5	-1.4	-1.4	2.3	2.2	4.7

The final 2 compounds of the part before come first, to join the parts.
SMILES	FGF22 binding	E coli growth	ALR H2O2 inh	UCH37 inh	Beta2AR agonist	HNF4A DNA FP	rRNA inh HTS	rRNA inh HTS OD600	rRNA inh HTS RFP
CCN(CC(=O)NCc1ccc(Cl)cc1)C(=O)/C=C/c1cccs1	·	0.657	·	5.0	5.6	-0.8	-1.2	-5.1	-3.0
COC(=O)c1cc(S(=O)(=O)Nc2cccc(C)c2C)cn1C	i	0.706	-1.4	3.5	-1.4	-1.4	2.3	2.2	4.7
C/C(=N\NC(=O)C(O)(c1ccccc1)c1ccccc1)c1ccc(NC(=O)CCCC(=O)O)cc1	i	·	-17.2	·	-10.6	5.2	·	·	·
Cc1cc(NC(=O)C2CC2)ncc1NC(=O)c1ccccn1	i	0.673	-0.8	2.0	-13.5	-0.8	-3.0	-2.7	-4.7
CCOC(=O)c1ccc(-c2c(-c3ccc(OC)cc3)oc(=O)c3cc(OC)c(OC)cc23)cc1F	i	0.741	-12.5	0.8	10.9	-3.3	7.7	-6.1	2.3
Cc1ccc(NS(=O)(=O)c2cccc(C(=O)O)c2)cc1S(=O)(=O)N1CCCCC1	·	0.663	-3.4	0.9	2.6	-1.9	·	·	·
O=C(CSc1nnc(COc2ccccc2Cl)o1)Nc1ccccc1	i	0.667	·	5.6	3.0	0.2	-8.6	-14.9	-0.4
COC(=O)Nc1sc2c(c1C(=O)NC1CC1)CCCCCC2	·	0.668	6.9	0.2	5.0	1.6	·	·	·
CCCCOc1ccc(NC(=O)CN2CCN(C(=O)OCC)CC2)cc1	·	0.738	-30.4	4.8	-8.1	-0.6	·	·	·
O=C(NCCCN1CCCC1)c1ccc2c(c1)N(Cc1ccccc1)CCS2	i	0.755	99.3*	i	-2.7	0.6	-13.0	-14.1	-0.5
C(=NOCc1ccccc1)c1ccccn1	i	·	·	·	·	-2.2	1.0	-1.3	-0.3
CCCn1nnnc1SCC(=O)NC1CCCC1	i	0.716	-1.1	3.3	-1.3	10.4	3.3	7.3	1.7

Part of the list above, with two lines to a compound:
Under each structure: FGF22 binding	E coli growth	ALR H2O2 inh	UCH37 inh	Beta2AR agonist	HNF4A DNA FP	rRNA inh HTS	rRNA inh HTS OD600	rRNA inh HTS RFP
> CCCCOc1ccc(NC(=O)CN2CCN(C(=O)OCC)CC2)cc1
    ·	0.738	-30.4	4.8	-8.1	-0.6	·	·	·
> O=C(NCCCN1CCCC1)c1ccc2c(c1)N(Cc1ccccc1)CCS2
    i	0.755	99.3*	i	-2.7	0.6	-13.0	-14.1	-0.5
> C(=NOCc1ccccc1)c1ccccn1
    i	·	·	·	·	-2.2	1.0	-1.3	-0.3

(list continues)
SMILES	FGF22 binding	E coli growth	ALR H2O2 inh	UCH37 inh	Beta2AR agonist	HNF4A DNA FP	rRNA inh HTS	rRNA inh HTS OD600	rRNA inh HTS RFP
CCC(O)C1CCN(C(=O)c2cc(COc3ccc4ncccc4c3)on2)CC1 (configuration not stated)	·	0.699	-9.1	0.8	-2.4	1.6	-28.4	-21.5	-6.8
Cc1cc(C)c2c(N)c(C(=O)c3ccc(Cl)cc3Cl)sc2n1	·	0.754	·	-48.2	-13.7	1.3	·	·	·
COc1ccc(-c2ccc3c(N)c(C(=O)c4ccc(OC)c(OC)c4)sc3n2)cc1	·	0.642	-4.4	-7.8	31.4	20.7	·	·	·
CCn1cc(C(=O)N2CC=C(c3ccccc3)CC2)c(=O)c2ccc(C)nc21	i	0.667	-9.2	-0.8	10.1	-0.3	-39.2	-69.0	-10.6
COc1cccc(CC(=O)N2CCN(S(=O)(=O)c3ccc(Br)cc3)CC2)c1	·	0.695	-9.7	-0.9	-4.6	-4.7	-1.1	-4.8	-3.6
CCN(CC)CCN1C(=O)c2oc3ccccc3c(=O)c2C1c1cccc(Br)c1 (configuration not stated)	·	0.693	-9.6	0.0	3.7	-0.9	·	·	·
COC(=O)c1cc(S(=O)(=O)N2CCN(c3cccc(Cl)c3)CC2)c[nH]1	·	0.72	-12.6	1.5	-0.4	0.1	·	·	·
C[C@@H](O)C#Cc1ccc2c(c1)O[C@H](CN(C)C(=O)Nc1ccccc1)[C@@H](C)CN([C@@H](C)CO)S2(=O)=O	i	·	·	·	·	-0.8	6.6&-0.2	-3.9&6.6	2.9&-3.2
O=C(NC1C2CC3CC(C2)CC1C3)C1CC1 (configuration not stated)	·	0.719	·	4.7	4.5	-2.6	·	·	·
COc1ccc(CNC(=O)COC(=O)c2ccc(Br)o2)cc1	i	0.664	-1.8	3.9	-4.4	0.7	1.6	6.1	0.8

Beta2AR agonist, what is marked active above.
SMILES	ALR H2O2 inh	UCH37 inh	Beta2AR agonist	rRNA inh HTS	rRNA inh HTS OD600	rRNA inh HTS RFP
CC(=O)C1CCC2C3CCC4=CC(=O)CCC4(C)C3(Br)C(=O)CC12C (configuration not stated)	·	2.0	55.6*	-11.6	7.3	7.9

Source: PubChem

Not all compounds are listed; count on the stated rates, not on these rows.
